# NPYLR7 agonist: mosquito NPYLR7 agonism. HEK293T NPYLR7/Galpha15, GCaMP6s calcium fluorescence. hit rate 0.15% among 270,000. activation, % at 10 µM. AID 1259423; in the data active = activation above about 40%;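 also: 0% = vehicle and 100% = reference agonist at the receptor; some compounds past the cut are filed as inactive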
# NPYLR7 agonist max-min: recorded beside NPYLR7 agonist, whose call it bears; activation, %; measured here: Max-Min RFU normalised activation; some inactives read as strong as hits;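 span of the calcium signal over five minutes; 0% = vehicle and 100% = native peptide agonist; compound fluorescence can raise it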
# An asterisk follows results filed as active; & = joins results of further samples.
SMILES,NPYLR7 agonist,NPYLR7 agonist max-min
CCOC(=O)[C@H]1C[C@@H]2O[C@H]1[C@H]1CN(Cc3ccc(OC)nc3)C[C@H]1[C@@H]2O,2,8
O=C(c1ccc(C(F)(F)F)cc1)N1CCCC(OCc2ccc(C(F)(F)F)cc2)C1 (stereo not drawn),-9,-2
Cc1nc(CNC(=O)CCc2ccc(Br)c(C)c2)no1,-24,-23
Cc1ccccc1NC(=O)Nc1ccc(-n2nc(OCC(C)C)nc2-c2ccco2)cc1,-3,-2
NC(=O)c1cc(S(=O)(=O)NC2CCCCC2)cs1,5,1
N#CC1(C(=O)N2CCCC(CNC(=O)c3ccccc3)C2)CCCC1 (stereo not drawn),1,5
CCc1nc2ccc(C(=O)N3CCN(S(=O)(=O)CC)CC3)cn2c1N(C)Cc1nccn1C,-5,-10
CCC(CC)C(=O)N(C)c1c(C)nc2c(OCc3ccc(Cl)cc3)cccn12,10,4
Cc1cccn2c(=O)c3cc(C(=O)NC(C)(C)C)n(C)c3nc12,5,6
Cc1cnc(C(=O)N2CCN(Cc3cccc(-c4noc(-c5ccco5)n4)c3)CC2)cn1,-5,-8
Cc1ccccc1C1(O)CCN(C(=O)c2cc(=O)c3ccccc3o2)C1 (stereo not drawn),3,2
CC1(C(=O)NS(=O)(=O)c2ccccc2Cl)CCN1C(=O)Cc1ccc(Cl)cc1Cl (stereo not drawn),2,-1
CCNC(=O)N1CCc2ccc(NC(=O)C(C)Oc3cccc(F)c3)cc21 (stereo not drawn),4,2
Cc1cc(C)c2nc(N(CCN(C)C)C(=O)c3ccc(S(C)(=O)=O)cc3)sc2c1,-2,-6
CC(=O)Nc1ccc(CN2CCc3c([nH]c4ccccc34)C2c2ccc(F)cc2)cc1 (stereo not drawn),5,-1
COc1ccc2nc(N3CCN(C(=O)C4=COCCO4)CC3)sc2c1,-1,-1
CC(C)(C)c1cc(CNCCS(=O)(=O)O)c(O)c(C(C)(C)C)c1,-10,-12
COc1ccc(-c2nnc(NC(=O)C3CCCN3S(=O)(=O)c3ccc(OC)cc3)s2)cc1 (stereo not drawn),19,8
Cc1ccsc1CN(Cc1ccc2c(c1)OCO2)C(=O)CNCC1CC1,-10,-17
CCOP(=O)(OCC)C(C)(C)NC(=S)Nc1ccccc1,-1,-3
O=S(=O)(c1ccc(N2CC=C(c3ccccc3)CC2)nc1)N1CCCC1,3,2
O=c1[nH]c2c(Cl)c(Cl)c(Cl)cc2o1,-6,-4
Cc1cc(C)n2c(SCCSc3ccc(Cl)cc3)nnc2n1,-1,3
CCOC(=O)C(=O)c1csc(NC(=O)c2cccs2)n1,5,2
CCOC(=O)C1=C(COC(=O)CCc2ccsc2)NC(=O)NC1C (stereo not drawn),-1,15
CC1CC(C(N)=O)c2ccccc2N1Cc1cc(-c2ccccc2)no1 (stereo not drawn),-2,-1
O=C(NNc1nc(-c2cc3ccccc3oc2=O)cs1)c1ccccc1,-4,-9
Cc1ccc(CN2CCN(C3CCN(Cc4ccccn4)CC3)CC2CCO)o1 (stereo not drawn),11,10
CC(=O)N1CCC(C(=O)N2CCN(CC(OCc3c(F)cccc3F)c3ccc(Cl)cc3)CC2)CC1 (stereo not drawn),1,3
C=CCNc1nnc(Cc2ccc(F)cc2)c(=O)[nH]1,10,4
Cc1nc(-n2nc(-c3cccs3)cc2NC(=O)COc2ccc(Cl)cc2)[nH]c(=O)c1C,3,2
O=C(NCC1OCCc2ccccc21)c1cc(-c2ccn[nH]2)cc(S(=O)(=O)NC2CCCCC2)c1 (stereo not drawn),-13,-14
O=C(COc1ccccc1[N+](=O)[O-])N1CCCC1c1ccccc1 (stereo not drawn),-1,-1
COc1ccccc1-c1noc2nc(N3CCCN(C)CC3)ccc12,5,1
COc1ccc2c(c1)Cc1c-2nc2ccccc2c1C(=O)N1CCN(CCO)CC1,-1,4
NC(=O)c1ncnc2c1[nH]c(=O)n2-c1ccccc1F,-2,-7
O=S(=O)(Nc1cccc(-c2nnc3n2CCCCC3)c1)c1cccc2nsnc12,3,4
Cc1cccc(CSc2nc(Oc3cc(C)cc(C)c3)cc(C(C)C)n2)c1,1,3
Cc1ccc2nc(SCC(=O)N3CC(C)OC(C)C3)nc(=O)n2c1 (stereo not drawn),-5,-8
COc1cccc(Cn2cccc2CN(C(=O)CN(CC(C)C)C(=O)c2cc(Cl)cc(Cl)c2)C(C)(C)C)c1,-4,-3
O=C(NCc1ccccc1)c1coc(CN(Cc2ccccc2)Cc2cccc(F)c2)n1,19,38
CC(=O)c1c(O)cc(O)cc1O,-14,-16
C=CCNc1oc(COc2ccc(OC)cc2)nc1C#N,0,-2
COc1ccc(S(=O)(=O)NCCn2ncccc2=O)c(OC)c1,2,1
Cc1n[nH]c(C)c1S(=O)(=O)NCCOc1ccc(-c2ccc(F)cc2)nn1,-5,-3
CCOC(=O)N1CCN(Cc2nc(-c3ccccn3)no2)CC1,4&15,1&8
COc1ccc(NC(=O)Cn2cc(-c3nnc(-c4ccccc4)o3)c3ccccc32)cc1,2,6
N#Cc1ccccc1S(=O)(=O)Cl,3,-2
COCCNc1nc(Nc2ccc(OC)cc2)c2nccnc2n1,0,3
O=C(NCc1cccc(C(F)(F)F)c1)c1cc(-c2ccccc2Cl)nn1-c1ccc(F)cc1,20,21

# Next part; it opens with the 2 that closed the last part.
SMILES,NPYLR7 agonist,NPYLR7 agonist max-min
COCCNc1nc(Nc2ccc(OC)cc2)c2nccnc2n1,0,3
O=C(NCc1cccc(C(F)(F)F)c1)c1cc(-c2ccccc2Cl)nn1-c1ccc(F)cc1,20,21
Cc1cc(C)c(C)c(S(=O)(=O)N2CC(C)OC(C)C2)c1C (stereo not drawn),-3&1,-8&0
COc1ccc(-c2nnc(NC(=O)C(Cc3ccccc3)NC(=O)Nc3ccccc3Br)s2)cc1 (stereo not drawn),2,5
COC(=O)c1sccc1NC(=O)COc1ccccc1OC,2,2
c1cnc(NCc2ccccc2CN2CCOCC2)nc1,1,0
CN(C)C(=O)C(OC(=O)c1ccc(Cl)cc1Cl)c1ccccc1 (stereo not drawn),2,-1
CC1CN(Cc2cn3cc(Cl)cc(Cl)c3n2)CCO1 (stereo not drawn),9,10
CCCCNC(=O)c1ccc(-c2ccn[nH]2)o1,-2,-11
O=c1sc(/C=N\Nc2ccccc2)c(Cl)n1-c1ccccc1,-4,-9
CC1CN(S(=O)(=O)NC2CCN(C3CCCC3)C2)CC(C)O1 (stereo not drawn),7,6
COc1cc(/C=C/c2[nH]c(=O)[nH]c(=O)c2[N+](=O)[O-])cc(OC)c1OC,8,12

# Four entries from above, sorted by count of non-hydrogen atoms, high to low:
SMILES,NPYLR7 agonist,NPYLR7 agonist max-min
COc1cc(/C=C/c2[nH]c(=O)[nH]c(=O)c2[N+](=O)[O-])cc(OC)c1OC,8,12
COC(=O)c1sccc1NC(=O)COc1ccccc1OC,2,2
c1cnc(NCc2ccccc2CN2CCOCC2)nc1,1,0
CCCCNC(=O)c1ccc(-c2ccn[nH]2)o1,-2,-11

# Carrying on.
SMILES,NPYLR7 agonist,NPYLR7 agonist max-min
COc1ccc(NC(=O)[C@@H]2O[C@H](CO)[C@H](O)[C@H](O)[C@H]2O)cc1F,3,0
O=C(c1cccc(Br)c1)N(CC(=O)N1CCc2sccc2C1COc1ccccc1)CC1CCCO1 (stereo not drawn),-2,4
Cc1cc(Cl)cc2sc(N(CCCn3ccnc3)C(=O)c3cccs3)nc12,-11,-18
CC1(C(=O)NS(=O)(=O)Cc2ccccc2)CCN1C(=O)C1(c2ccc(Cl)cc2)CC1 (stereo not drawn),1,-1
Cn1nc(C(=O)N2CCN(Cc3ccc(Br)s3)CC2)ccc1=O,3,5
CC(=O)NCC1CCN(C(=O)c2cn(CCN(C)C)c3ccccc23)CC1,1,-2
Cc1cccnc1CN1CCN(Cc2ccc(N(C)C)nc2)CC1,-5,-11
O=C(Nc1ccc2[nH]cc(CCN3CCc4ccccc4C3)c2c1)c1cccc2ccccc12,2,9
COc1cc(OC)cc(C(=O)NC(C(=O)N2CCCC(C(F)(F)F)C2)C(C)C)c1 (stereo not drawn),1,0
CCOC(=O)c1c(NC(=O)C(C)Oc2ccccc2)c(-c2ccc(OC)c(OC)c2)cn1Cc1ccccc1 (stereo not drawn),9,9
C=CCn1c(=O)c2c(nc3n(C(C)C)c(C)cn23)n(C)c1=O,0,4
C=CCN1C(=O)NC(c2ccccc2F)C2=C1CN(Cc1ccc(F)cc1)C2=O (stereo not drawn),12,14
CN(Cc1n[nH]c2c1CCCCC2)C(=O)CC1(c2ccc(-c3ccccc3)cc2)CC(=O)N(C)C1=O (stereo not drawn),16,-1
O=Cc1ccc(Sc2n[nH]c(Cc3ccccc3)n2)c([N+](=O)[O-])c1,3,-1
Cc1cccc(NC2SC(=O)N(CCN3C(=O)c4ccccc4C3=O)C2=O)c1 (stereo not drawn),9,8
COc1cc(SC)ccc1C(=O)NC1CCCC1,5,-1
O=C(/C=C/c1cccs1)N1CCC(C2(Cc3ccc(F)cc3)NC(=O)N(C3CCOC3)C2=O)CC1 (stereo not drawn),8,4
O=C(Nc1cccc(F)c1)Nc1ccnn1C1CCN(Cc2c(F)cccc2F)CC1,16&2,5&0
CC(C)=CC(=O)OCC(=O)NCc1ccc2c(c1)OCO2,-2,-7
Cc1ccn2c(=O)c(NC(=O)CC(c3ccccc3)c3ccccc3)c(C)nc2c1,-6,-6

# Record cards, from the list above. Order of values: NPYLR7 agonist, NPYLR7 agonist max-min
# Results for Cc1cccc(NC2SC(=O)N(CCN3C(=O)c4ccccc4C3=O)C2=O)c1 (stereo not drawn) = 9, 8
# Results for CC(C)=CC(=O)OCC(=O)NCc1ccc2c(c1)OCO2 = -2, -7
# Results for C=CCn1c(=O)c2c(nc3n(C(C)C)c(C)cn23)n(C)c1=O = 0, 4
# Results for Cc1ccn2c(=O)c(NC(=O)CC(c3ccccc3)c3ccccc3)c(C)nc2c1 = -6, -6

# (continued)
SMILES,NPYLR7 agonist,NPYLR7 agonist max-min
CC1CCN(c2nnc(SC(C)c3nc(N)nc(N(C)C)n3)n2C2CC2)CC1 (stereo not drawn),-5,-7
COc1ccccc1C(=O)N(Cc1c(-c2ccccc2)noc1N1CCCC1)CC(C)C,2,9
CCC(C)Cn1c(-c2ccc(OC)cc2)csc1=Nc1cccc(C(C)=O)c1 (stereo not drawn),-7,-11
O=C1[C@@H]2C[C@H](O)CCN2C(=O)CN1Cc1ccc2c(c1)OCO2,10,-10
CC(=O)c1ccc(C(=O)N(Cc2cccnc2)c2nc3c(C)cc(C)cc3s2)cc1,-6,-2
N#Cc1c(NC(=O)C2CC(=O)OC23CCCCC3)sc2c1CCCCC2 (stereo not drawn),8,5
CN(C)/C=C1\N=C(c2cccc(Br)c2)OC1=O,3,6
CC(=O)C(Sc1ncnc2sc(C)c(C)c12)=C(C)O,14,6
Cc1cc(C(=O)N[C@@H]2CC[C@@H]3C[C@@H]2[C@@H](O)CO3)c(C)o1,2,9
Cc1cccc(Oc2ccnc(N3CCC[C@H]3C(=O)N3CCN(C)CC3)n2)c1,1,0
CCCCN(C=O)c1c(CC)nc2ccc(C(=O)NCCCn3ccnc3)cn12,31,15
O=C(c1ccco1)N1N=C(c2cccs2)CC1c1ccco1 (stereo not drawn),-5,-6
COC(=O)c1c(NC(=O)Cn2cnc([N+](=O)[O-])n2)sc2c1CCC(C(C)(C)C)C2 (stereo not drawn),-15,-24
O=C(NCc1ccco1)c1csc(COc2ccc3c(c2)OCO3)n1,13,14
COc1ccccc1C1N=C(c2ccccc2)C(C)(C)N1O (stereo not drawn),-12,-18
Cc1cc(C(=O)N2CCN(Cc3cccc(-c4noc(-c5cccc(Cl)c5)n4)c3)CC2)no1,5,10
O=C(c1cc(-c2ccco2)on1)N1CCCCC1,1,1
COc1cc(OC)cc(C(=O)NCCc2cc3c(C)ccc(C)c3[nH]c2=O)c1,3,8
CCOC(=O)c1ccc(-c2coc3cc(O)cc(O)c3c2=O)o1,-2,-9
CC(=O)NCC1CCN(C(=O)Cc2ccc3c(c2)CCCC3)CC1,3,0
CCCCNC(=O)N1CCN(c2cc(Oc3cc(C)ccc3Cl)ncn2)CC1C (stereo not drawn),-8,6
COc1cc(Br)cc2c1OC1(C)CC2NC(=O)N1c1cccc(C)c1 (stereo not drawn),-12,-16
CCC(=O)c1ccc(OCC(=O)N2CCC3(CCCNC3)C2)cc1 (stereo not drawn),-1,8
COc1ccc(-c2cc(C(=O)NCc3ccc(F)cc3)n(-c3ccc(F)cc3)n2)c(OC)c1,-2,1
O=[N+]([O-])c1ccc(CSc2ncn[nH]2)cc1,6,6
CN(Cc1n[nH]c(=S)n1C)S(=O)(=O)c1ccccc1,-4,32
O=C(O)C1CN(S(=O)(=O)/C=C/c2ccc(Cl)cc2)c2ccccc21 (stereo not drawn),4,2
CSc1sc(NC(=O)c2ccc(CN(C)C)cc2)nc1C,4,0
CC(C)(C)N(Cc1ccccc1)C(=O)COc1cccnc1Br,-1,-1
CCOC(=O)c1sc(=NC(=O)c2ccc(Cl)s2)n(C)c1C,-1,0
Fc1ccc(CNCC2(c3ccnc(C4CC4)c3)CC2)cc1Cl,3,2
Cc1ccc(CN(CCc2ccccc2)C(=O)CN(CC(=O)OCc2ccccc2)Cc2ccco2)o1,3,7
COCc1nc(-c2ccccc2)nc(N2CCN(C(=O)c3ccccc3Cl)CC2)c1Cc1c(F)cccc1Cl,26,19
Cc1ccc(NC(=O)N2CCSC2c2cccc(Cl)c2)c(C)c1 (stereo not drawn),22,20
Cc1ccc(-n2c(C)ccc2C)cc1,2,2
Cc1cc(C(=O)OCC(=O)c2cccc3ccccc23)c2ccccc2n1,18,11

# These rows are one share of the data; rates above refer to the full screens.
